PMP22 txn prim – modulators of PMP22 gene transcription in S16 Schwann cells; S16 Pmp22-F2sN Schwann cells (luciferase reporters placed in the Pmp22 gene), FLuc/NLuc coincidence luminescence, 24 h; Potency, µM (series often up to 57.5 µM), without a hit: at the top dose activity change, negative = inhibition, usual class: inhibitors; 43,000 tested, 2% active; active = clear falling dose curves in both reporters; inconclusive = both reporters move, but less clearly or upward; inactive = either reporter flat; the % is the NLuc reporter signal; note: % is set by controls: 0 for no effect and ±100 for the full control effect; some results filed as inactive show a strong effect at the top dose
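S16(c9) Schwann cells with FLuc/NLuc coincidence reporter in the Pmp22 3' UTR; compounds pin-transferred, 24 h at 37C. Dual-luciferase read: FLuc first, then NLuc after Stop&Glo, each 10 min at room temperature.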
HTT promoter inh – HTT promoter inhibition. HEK293 HTT promoter firefly luciferase reporter (activity 0% = vehicle and -100% = no light), 24 h. Potency, µM (top dose mostly 57.5 µM), inactives show at the highest dose activity change, negative = inhibition, actives largely listed as inhibitors. 48,000 tested, 0.93% active; active = well fitted inhibition curve with a large enough effect; inconclusive = small, poorly fitted or top-dose-only effect; inactive = no such curve, though single readings can be large or run the other way; note: nearly all actives have a fitted effect of over 50% in size
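HEK293 cells carrying firefly luciferase reporters were seeded at 2,500 per well in Opti-MEM and cultured for 24 h. They were then treated with compounds at up to 57.5 uM final for 24 h at 37 degrees C before Dual-Glo luminescence readout.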
Numbers without * were called inactive; ? = inconclusive; nt = not tested or not shown; & = joins results of further samples; [ ] = another dose, or the depositor's remark. Potency is the fitted concentration of half-maximal effect.

SMILES	PMP22 txn prim	HTT promoter inh
COc1cc(NC(=O)c2ccc(-n3cnc4cccnc43)cc2)cc(OC)c1	-14%	-13%
CCc1ccc(NCc2cc3cc4c(cc3n(CC(=O)Nc3ccccc3OC)c2=O)OCCO4)cc1	-54%	-13%
CCOc1ccc2oc(=O)cc(CN3CCN(Cc4ccc(C)cc4)CC3)c2c1	?	-13%
COc1ccc(/C=C/C(=O)Nc2ccc3nc(N4CCC(C)CC4)cc(C)c3c2)cc1	-1%	?
CCN(C(=O)CCNC(=O)Cn1cnc2ccccc2c1=O)c1cccc(Cl)c1	1%	-3%
CC(NC(=O)c1cc(Sc2ccc(F)cc2F)nc2ccccc12)c1ccccc1 (centres undefined)	?	?
COc1cc(OC)c(NC(=O)n2ncc3cc(Cl)ccc32)cc1Cl	-22%	-1%
COc1ccc(-n2nc(C(=O)Nc3ccc(Cl)cn3)c3c4ccccc4n(C)c3c2=O)cc1	-14%	-8%
C[n+]1cc2c3c(ccc2c2ccc4cc5c(cc4c21)OCO5)OCO3	nt	2.8µM*
COc1cccc(Nc2nc3cc(Cl)c(Cl)cc3nc2-n2nc(C)cc2C)c1	-3%	-4%
COc1cccc(CNC(=O)c2cc(-c3ccc(Cl)s3)nc3ccccc23)c1	?	10%
Cc1ccc(-n2nc(C)c3c(C(=O)NCCc4ccccc4)cc(C)nc32)cc1	-6%	-28%

Looked up by compound from the list above, three records:
SMILES	PMP22 txn prim	HTT promoter inh
COc1cccc(Nc2nc3cc(Cl)c(Cl)cc3nc2-n2nc(C)cc2C)c1	-3%	-4%
C[n+]1cc2c3c(ccc2c2ccc4cc5c(cc4c21)OCO5)OCO3	nt	2.8µM*
CCc1ccc(NCc2cc3cc4c(cc3n(CC(=O)Nc3ccccc3OC)c2=O)OCCO4)cc1	-54%	-13%

Carrying on.
SMILES	PMP22 txn prim	HTT promoter inh
O=C(Nc1ccc(Cl)cc1)C1CCN(S(=O)(=O)c2ccc(Br)s2)CC1	?	?
COc1ccc(C(=O)NCc2nnc(SCC(=O)Nc3ccc(F)cc3)n2-c2ccccc2)cc1	-19%	-22%
CCOC(=O)c1cccc(NC(=O)c2ccc3nc(C(C)C)oc3c2)c1	-80%	-23%
CCN1CCN(C(c2ccccc2F)c2c(O)cc(C)n(CCOC)c2=O)CC1 (centres undefined)	-12%	-9%
Cc1ccc(C)c(N(C)C(=O)C2CCN(S(=O)(=O)c3cccc4nsnc34)CC2)c1	?	-19%
Cc1cccc(C(=O)n2nc(C)c(S(=O)(=O)N3CCOCC3)c2C)c1	-41%	-17%
CCCCn1c(C2CC(=O)N(c3ccc(OCC)cc3)C2)nc2ccccc21 (centres undefined)	4%	-13%
COCCNC(=O)c1cnn(-c2ccc(C)cc2C)c1C1CCN(C(=O)OC(C)(C)C)CC1	-2%	-17%
COc1ccc(C2CC(=O)c3cc(-c4nc(-c5ccc(Cl)cc5)cs4)c(=O)[nH]c3C2)cc1OC (centres undefined)	22%	-18%
Cc1cccc(CNC(=O)Cn2ccc3cc(S(=O)(=O)N4CCC(C)CC4)ccc32)c1	-35%	-15%
CCc1ccc(-n2nc3ccc(NC(=O)c4cc(Cl)c(OC)c(Cl)c4)cc3n2)cc1	2%	3%
CCN(CC)S(=O)(=O)c1ccc2c(c1)c(=O)c(C(=O)NCc1ccccc1)cn2C	?	-10%
Cc1nn(-c2ccccc2)c2nc(C3CC3)cc(C(=O)Nc3cccc(F)c3)c12	?	?
CCOc1ccc(CCNC(=O)Cn2ncc3c([nH]c4ccccc43)c2=O)cc1OCC	3%	1%
CC1CCC(NC(=O)c2ccc3c(c2)N(Cc2cccc(Cl)c2)C(=O)c2ccccc2S3(=O)=O)CC1 (centres undefined)	-13%	-13%
CCN1CCN(CCCNC(=O)c2ccc3nc(Cc4ccc(OC)cc4)oc3c2)CC1	-71%	-10%
Clc1ccccc1CNc1nc2ccccc2c2nc(-c3cccnc3)nn12	3%	-4%
O=C(Nc1ccc(O)cc1)c1cccc(S(=O)(=O)N2CCOCC2)c1	-6%	-1%
CCOc1ccc(N2CC(c3nc4ccccc4n3CCOc3ccccc3)CC2=O)cc1 (centres undefined)	-1%	-25%
COC(=O)Nc1nc2ccc(C(=O)c3ccccc3)cc2[nH]1	nt	-14%&1%
CCc1nc2ccc(C(=O)NCc3ccc(OC)c(OC)c3)cc2nc1CC	2%	1%
O=c1oc2ccccc2cc1-c1nnc(Nc2ccc(Cl)cc2Cl)s1	-16%	14%
O=C(NCc1ccc(Cl)cc1)c1cc(-c2ccc(F)cc2)on1	?	4%
O=C(Nc1ccc2c(c1)CCCN2C(=O)c1cccs1)c1ccccc1Cl	?	-28%
Cn1nnnc1SCCNCc1ccccc1OCc1ccccc1F	?	-28%
CCCN1CCN(C(=O)Cn2c(-c3cccs3)cc3cc(F)ccc32)CC1	?	-3%
O=C(Nc1cccc(F)c1)c1ccc2snnc2c1	?	9%
CCc1ccc(C2C(C(=O)Nc3ccccc3)=C(C)Nc3nc(SCC(=O)c4ccc(C)cc4)nn32)cc1 (centres undefined)	-4%	3%
COc1ccc(-c2cc3ccc(O)c(CN4CCC(C)CC4)c3oc2=O)cc1	8%	-10%
COc1ccc2cc(-c3nc(-c4ccc(N(C)C)cc4)no3)c(=O)oc2c1	-28%	5%
COc1cccc(CNC(=O)c2cc(C)nc3c2c(C)nn3-c2cccc(F)c2)c1	-4%	-20%
Cc1ccc(N2C(=O)CSC23C(=O)N(CC(=O)NC2CCCCC2)c2ccccc23)cc1C (centres undefined)	-3%	2%
COc1ccc(-c2nc(CSc3nnc(C)n4c3cc3oc(C)cc34)c(C)o2)cc1OC	-12%	2%
CCOc1ccc(NC(=O)CSc2nc(=O)[nH]c3c2CCC3)cc1	4%	-28%
COc1cccc(-n2c(=O)c3c(C)c(C(=O)N(C)C)sc3n(CC(=O)NCCc3ccc(OC)c(OC)c3)c2=O)c1	-13%	0%
Cc1ccc(CSc2nnc([C@@H](N)C(C)C)o2)cc1	0%	-11%

Of the compounds above, these contain two or more sulfur atoms.
SMILES	PMP22 txn prim	HTT promoter inh
O=C(Nc1ccc(Cl)cc1)C1CCN(S(=O)(=O)c2ccc(Br)s2)CC1	?	?
Cc1ccc(C)c(N(C)C(=O)C2CCN(S(=O)(=O)c3cccc4nsnc34)CC2)c1	?	-19%

Carrying on.
SMILES	PMP22 txn prim	HTT promoter inh
COc1ccc(CCn2c(=O)c3ccccc3n(CC(=O)Nc3cccc(C)c3)c2=O)cc1OC	-6%	15%
O=C(NCCc1ccccc1)c1ccc2c(c1)N(Cc1ccc(Cl)cc1)C(=O)c1ccccc1S2(=O)=O	-32%	3%
CCN(CC)C(=O)c1sc2c(c1C)c(=O)n(-c1ccc(Cl)c(Cl)c1)c(=O)n2Cc1cc(=O)n2ccccc2n1	?	-11%
Cc1cc(NC(=O)CCS(=O)(=O)c2cc3c4c(c2)CCN4C(=O)CC3)ccc1Br	-10%	-13%
CCOc1ccc(-c2nonc2NC(=O)c2oc3cc(C)c(C)cc3c2C)cc1OCC	2%	-21%
COc1ccc(CCNC(=O)CCSCc2ccccc2Cl)cc1OC	-13%	-4%
O=C(CSc1oc(-c2ccco2)nc1S(=O)(=O)c1ccccc1)c1ccc(Cl)cc1	-26%	?
COc1ccc(N2CCN(C(=O)C3CCCN(C(=O)c4cc5sccc5n4C)C3)CC2)cc1 (centres undefined)	5%	?
Cc1ccc(O)c(NC(=O)COCc2cc(-c3ccco3)on2)c1	?	19%
CCN(CCCNC(=O)c1cc2c(=O)n(CC)c3ccccc3c2s1)Cc1ccccc1	?	3%
CCCc1c(OCCCCc2nn[nH]n2)ccc(C(C)=O)c1O	nt	0%
O=c1cc(-c2ccccc2)c2ccc3c(c2o1)CN(Cc1ccccc1)CO3	-14%	-23%

Entries above that contain an NH in an aromatic ring (five):
SMILES	PMP22 txn prim	HTT promoter inh
COc1ccc(C2CC(=O)c3cc(-c4nc(-c5ccc(Cl)cc5)cs4)c(=O)[nH]c3C2)cc1OC (centres undefined)	22%	-18%
CCOc1ccc(CCNC(=O)Cn2ncc3c([nH]c4ccccc43)c2=O)cc1OCC	3%	1%
COC(=O)Nc1nc2ccc(C(=O)c3ccccc3)cc2[nH]1	nt	-14%&1%
CCOc1ccc(NC(=O)CSc2nc(=O)[nH]c3c2CCC3)cc1	4%	-28%
CCCc1c(OCCCCc2nn[nH]n2)ccc(C(C)=O)c1O	nt	0%

(list continues)
SMILES	PMP22 txn prim	HTT promoter inh
Cn1c(=O)c(=O)n(C)c2cc(S(=O)(=O)N3CCN(c4ccccc4F)CC3)ccc21	-13%	-24%
CCCCC(=O)N1CCc2cc(OC)c(OC)cc2C1COc1ccc(C(=O)OCC)cc1 (centres undefined)	?	?
CCOC(=O)c1[nH]c(C)c(CCC(=O)Nc2ccccc2C(=O)OC)c1C	-2%	?
COc1cccc(NC(=O)Cn2nc(N3CCN(c4ccccc4)CC3)ccc2=O)c1	-24%	2%
COc1ccc(-c2nc(SCC(=O)Nc3ccc4c(c3)OCO4)c(-c3ccc(F)cc3)[nH]2)cc1OC	-51%	-20%
CCCCCn1c(=O)[nH]c2cc(C(=O)N3CCN(c4ccccc4F)CC3)ccc2c1=O	?	-27%
CCN(CC)c1ccc(C(=O)N2CCC(c3ccncc3)CC2)cc1	?	?
CN(C)c1ccc(CNC(=O)c2cnc3sc(N4CCCC4)nn3c2=O)cc1	1%	-2%
COc1ccc2c(c1)c1c(c(=O)n(Cc3ccccc3)c(=O)n1CC(=O)Nc1c(C)cccc1C)n2C	-9%	-14%
Cc1c(C)n(Cc2ccccc2)c2ccc(C(=O)N3CCN(c4ccc(F)cc4)CC3)cc12	3%	-12%
Cc1cccc(NC(=O)NCCOCCn2c(=O)oc3ccccc32)c1C	-19%	-3%
O=C(O)CCc1nc(-c2ccccc2)c(-c2ccccc2)o1	nt	-8%
Cn1c(=O)c2c(ncn2C)n(C)c1=O	nt	6%&-5%
O=S(=O)(c1ccccc1)c1nnn2c1nc(NCc1cccs1)c1sccc12	2%	0%
COc1ccc(Nc2nn(-c3ccc(OC(F)(F)F)cc3)nc2C(C)=O)cc1	-6%	2%
O=C(CN1C(=O)CC(c2ccco2)Sc2ccccc21)Nc1ccc(Br)cc1 (centres undefined)	-23%	-27%
CCc1ccc(NCc2cc3ccc(OC)cc3n(CC(=O)Nc3ccccc3OC)c2=O)cc1	-26%	?
O=C(CSc1ccccc1)NCc1ccc2c(c1)CCN2C(=O)c1ccccc1	3%	-1%
CCOc1ccc2oc(=O)cc(CN3CCN(C(=O)c4cccc(F)c4)CC3)c2c1	?	-17%
CCC(CC)C(=O)Nc1c(C(=O)N2CCN(c3ccccc3F)CC2)oc2ccccc12	?	?
Cc1cc(C(=O)Nc2c(C)cccc2C)n(-c2ccccc2)n1	-3%	-16%
O=C(CSc1nc2c(oc3ccccc32)c(=O)n1-c1ccccc1)Nc1ccccc1F	?	-26%
O=C(Nc1cccc(C(=O)N2CCN(c3ccccc3)CC2)c1)c1nsc2ccccc12	?	-19%
CCN(Cc1ccccc1)Cc1c(O)ccc2c(=O)c(-c3ccccc3)c(C(F)(F)F)oc12	-18%	?
CCCCNc1ccc(-c2nc(-c3ccccc3)no2)cc1[N+](=O)[O-]	-5%	11%
Cc1cc(C)cc(NC(=O)C2CCCN(S(=O)(=O)c3cccc4nsnc34)C2)c1 (centres undefined)	-15%	1%
CCc1ccc(-c2nn(CC(=O)Nc3ccccc3)c3c2cnc2ccc(F)cc23)cc1	1%	62%[activator]
CCc1cccc(C)c1NC(=O)Cn1nc(C)c2nn(-c3ccc(Cl)cc3)c(C)c2c1=O	-29%	-27%
O=C(Nc1ccc2nc(SCC(=O)N3CCCc4ccccc43)sc2c1)c1cccc(F)c1	?	?
COc1cccc(NC(=O)C(=O)NCCc2csc(-c3ccc(C)cc3)n2)c1	?	41%[activator]
CCOc1ccccc1NC(=O)c1cn(C2CCCC2)c(=O)c2c1c1ccccc1n2C	?	-5%
CC(=O)O[C@H]1C[C@@H]2CC[C@@H]3[C@H](CC[C@@]4(C)[C@H]3C[C@H]([N+]3(C)CCCCC3)[C@@H]4OC(C)=O)[C@@]2(C)C[C@@H]1N1CCCCC1	nt	15%
C=C(C)CSc1nc2sc3c(c2c(=O)n1Cc1ccccc1)CC(C)(CC)OC3 (centres undefined)	-12%	-10%
CC(Nc1ccc(-c2nc(-c3ccncc3)no2)cc1[N+](=O)[O-])c1ccccc1 (centres undefined)	-6%	2%
CCC(C)NC(=O)c1sc2nc(C)c(C(=O)Nc3ccc(Cl)cc3)c(-c3ccc(Br)cc3)c2c1N (centres undefined)	-7%	-23%
COc1ccc(-n2nc(C(=O)NCCc3cccc(C)c3)c3c4ccccc4n(C)c3c2=O)cc1Cl	-22%	-11%
COc1ccc(CCNC(=O)c2ccc3c(c2)N(Cc2cccc(Cl)c2)C(=O)c2ccccc2S3=O)cc1OC (centres undefined)	2%	-13%
COc1ccccc1N1CCN(S(=O)(=O)c2c(C)sc3ncn(CC(=O)N(C)c4ccc(C(C)C)cc4)c(=O)c23)CC1	?	-29%
Cn1c(=O)c2c(nc(SCC(=O)Nc3ccc(F)cc3)n2Cc2ccccc2F)n(C)c1=O	-7%	9%
CCN(CC)CCNC(=O)COc1ccc(Cl)cc1	nt	5%
CC(=O)Nc1cc(C(=O)NCc2ccc(C)cc2)ccc1Sc1ccc(C)cc1	?	?
